# Anthrax LT inh – anthrax lethal toxin internalization inhibition; Cells, anthrax lethal toxin internalization, FRET ratio (460/530); Potency, µM (series often up to 40 µM), without a hit: top-dose activity change, negative = inhibition, actives largely listed as inhibitors; 0.67% of 70,000 active; active = well fitted falling ratio curve with the 530 nm signal flat; inconclusive = other ratio curves, or a change in one channel alone; inactive = flat curves in the ratio and both channels; the % refers to the ratio; note: % is set by controls: 0 for no effect and ±100 for the full control effect; nearly all actives have a fitted effect of over 50% in size; tested in ME-180 cells; beta-lactamase reporter
# Prx2 Sm inh – inhibitors of Schistosoma mansoni peroxiredoxin 2 | S. mansoni Prx2 activity coupled to TGR/GSH (TGR is thioredoxin glutathione reductase), NADPH fluorescence loss, qHTS; some inactives read as strong as hits | Potency, µM | 0.07% of 65,000 active; active means full or partial inhibition curve with a strong effect at the top dose; inconclusive means weaker partial or single-point curve; inactive means no accepted curve; note: series up to 57 µM; many of its hits are not listed in these tables
#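 Coupled assay in which S. mansoni TGR passes NADPH reducing equivalents via glutathione to Prx2, which reduces H2O2. Compounds were preincubated 15 min at room temperature with 25 nM TGR/50 nM Prx2 mix. Kinetic NADPH fluorescence loss (ex 365/em 450 nm) was monitored.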
# Numbers without * were called inactive; ? = inconclusive; / = not tested or not shown; [ ] = remark or other dose. Potency is the fitted concentration of half-maximal effect. Some of the compounds tested; the hit share may differ from the screen's.
SMILES,Anthrax LT inh,Prx2 Sm inh
CC(c1nnc(SCC(=O)c2c(N)n(C)c(=O)n(C)c2=O)n1-c1ccc(Cl)cc1)N(C)C (configuration not stated),2.3%,>57
O=C(Nc1nc2ccc(S(=O)(=O)N3CCCCC3)cc2s1)C1CCCO1 (configuration not stated),-1.0%,>57
Cn1ncc(Cl)c1C(=O)Nc1cccnc1,0.2%,>57
Cc1nc2cc(C(F)(F)F)ccc2n1C1CCN(C(=O)N2CCOCC2)CC1,1.4%,>57
Cc1nc2ccc(CCO)cc2s1,9.7%,>57
O=C(NCCN1CCOCC1)[C@H](Cc1ccccc1)N1C(=O)c2ccccc2C1=O,-0.4%,>57
CCc1ccc2oc(-c3cccc(NC(=O)c4cccnc4)c3)nc2c1,?,>57
COc1ccc(CCN(C(=O)c2ccccc2)C2=CC3CCC(C2)N3C)cc1OC (configuration not stated),-5.5%,>57
CCC1CCCCN1C(=O)c1cc2cc(Br)ccc2oc1=O (configuration not stated),-5.4%,>57
Clc1cccc2ccccc12,1.5%,/
CCOC(=O)C1CCCN(c2c(Nc3cccc(C)c3)c(=O)c2=O)C1 (configuration not stated),0.6%,/
CC1=C(C(=O)OCC(C)C)C(c2cccc(F)c2)N2C(=O)C(C)SC2=N1 (configuration not stated),-28.6%,>57

# Profiles as entered above. Screens in order: Anthrax LT inh, Prx2 Sm inh
# Profile of CCC1CCCCN1C(=O)c1cc2cc(Br)ccc2oc1=O (configuration not stated) : -5.4%, >57
# Profile of Cn1ncc(Cl)c1C(=O)Nc1cccnc1 : 0.2%, >57
# Profile of Cc1nc2ccc(CCO)cc2s1 : 9.7%, >57
# Profile of CCOC(=O)C1CCCN(c2c(Nc3cccc(C)c3)c(=O)c2=O)C1 (configuration not stated) : 0.6%, /
# Profile of Cc1nc2cc(C(F)(F)F)ccc2n1C1CCN(C(=O)N2CCOCC2)CC1 : 1.4%, >57

# Following part:
SMILES,Anthrax LT inh,Prx2 Sm inh
c1ccc(Sc2ncnc3c2oc2ccccc23)nc1,-20.2%,>57
Cc1cccc(NS(=O)(=O)c2ccccc2)n1,1.3%,/
CC1(C)Oc2ccc3ccc(=O)oc3c2C(N2CCCCC2)C1O (configuration not stated),-21.2%,/
CCOC(=O)C(O)(NC(=O)c1cccnc1)C(F)(F)F (configuration not stated),3.5%,>57
CCC(C)(C)NC(=O)c1ccc2c(c1)N(CC(=O)OC)C(=O)C(C)(C)O2,2.1%,>57
CN1CCCCCC1=Nc1ccccc1C#N,-3.3%,>57
COc1ccccc1OCC(=O)Nc1nnc(-c2ccco2)s1,4.1%,>57
O=C(NC1(C(F)(F)F)Oc2ccccc2O1)N1CCCC1,0.1%,>57
COc1cccc(NC(=O)CSc2nc3c(c(=O)n2C)SC(C)C3)c1 (configuration not stated),11.0%,>57
COCCCn1c(SCC(=O)Nc2cccc(C(=O)OC)c2)nnc1-c1ccncc1,9.5%,>57
C[C@H](Cc1ccc2c(c1)OC(C(=O)O)(C(=O)O)O2)NC[C@H](O)c1cccc(Cl)c1,-4.8%,/
O=C(Nc1scc(-c2cccs2)c1C(=O)O)c1cccs1,-18.6%,>57
CCOC(=O)Nc1ccc(NS(=O)(=O)c2ccc(C)cc2)cc1,14.0%,>57
COc1ccc(-n2c(=O)cc(N3CCc4ccccc43)[nH]c2=O)cc1,-4.8%,>57
Cc1cc(C(=O)OCC(=O)N2CCc3ccccc32)c(C)o1,13.0%,>57
COc1ccc(Cn2c(N)c(C(=O)NCc3ccco3)c3nc4ccccc4nc32)cc1OC,?,>57
Cc1cccc(NC(=O)Cn2nnc(-c3cccs3)n2)c1C,-22.1%,>57
CC(=O)c1c(C)[nH]c(C(=O)Nc2ccc(C)cn2)c1C,22.4%,>57
Nc1cc(N)nc(SCC(=O)NCC2CCCO2)n1 (configuration not stated),-1.8%,>57
COc1ccc(NC(=O)CCN2CCCCCC2)c(OC)c1,-8.3%,>57
CCCCOc1ccc(CNn2c(C)nc3ccccc3c2=O)cc1,-8.7%,>57
O=S(=O)(Nc1ccncc1)c1ccccc1,-8.2%,>57
CC1(C)N=C(/C=N/O)C=[N+]1[O-],?,>57
CCOc1cccc(/C(O)=C2/C(=O)C(=O)N(CCN3CCOCC3)C2c2cccnc2)c1 (configuration not stated),-13.5%,>57
Cc1noc(C)c1S(=O)(=O)N1CCC(C(=O)N2CCC(N3CCCCC3)CC2)CC1,18.0%,>57
Cc1noc(C)c1CSc1nnc2n(-c3ccccc3)c(=O)c3ccccc3n12,-5.6%,>57
CCC(=O)Nc1nn(C)c2nc3c(C)cccc3cc12,?,>57
NC(=O)CN1C(=O)C(O)(CC(=O)c2ccccc2O)c2ccccc21 (configuration not stated),?,>57
Cc1ccccc1NC(=O)CCN1CCCCCC1,-20.0%,>57
O=C(/C=C/N1CCOCC1)c1ccc(-c2ccccc2)cc1,?,/
CCOC(=O)c1[nH]c(C)c(/C(O)=C2\C(=O)C(=O)N(CCN(C)C)C2c2ccncc2)c1C (configuration not stated),-0.9%,>57
O=C1c2cccnc2C(=O)N1Cc1ccc2c(c1)OCO2,11.4%,>57
Cc1ccc(C2NC(=O)NC(O)(C(F)(F)F)C2C(=O)c2cccs2)o1 (configuration not stated),1.1%,>57
COC(=O)CCC(=O)Nc1sc(C)c(C)c1C(N)=O,6.2%,>57
COC(=O)c1cc(CSc2nnc(NC3CCCCC3)s2)oc1C,-4.6%,>57
CC1(C)C(c2cccs2)=[N+]([O-])C2(CCCCC/C2=N\O)N1O (configuration not stated),1.7%,>57
CC(=O)Nc1ccc(OC(=O)C(CCS(C)(=O)=O)N2C(=O)c3ccccc3C2=O)cc1 (configuration not stated),/,>57
CCOC(=O)CSc1nc2cc(OC)ccc2cc1C#N,-5.3%,>57
Fc1ccc(-n2c(Cc3ccccc3)nnc2SCc2nc(-c3cccs3)no2)cc1,?,>57
CCOc1ccc(CCNS(=O)(=O)c2c(C)n[nH]c2C)cc1OCC,3.3%,>57
Cn1c(=O)c2cc(S(=O)(=O)NCCC(=O)NCc3ccccc3Cl)ccc2n(C)c1=O,5.7%,>57
Cc1ccccc1-c1nc(CN2CCC(C(=O)NCCCN3CCCC3)CC2)c(C)o1,?,>57
N#CC(c1nc2ccccc2nc1N1CCCCC1)S(=O)(=O)c1ccc(Cl)cc1 (configuration not stated),-0.3%,>57
COc1cccc([C@H]2Oc3ccc(OC)cc3/C(=N\OC[C@@H](O)[C@@H]3O[C@@H]4OC(C)(C)O[C@@H]4[C@H]3O)[C@@H]2O)c1,0.8%[8 µM],/
CCN1C(=O)C(Cc2nc3ccccc3c(=O)n2C)c2ccccc21 (configuration not stated),8.6%,/
Cc1ccc2cc(-c3noc(C4CCCO4)n3)c(=O)[nH]c2c1 (configuration not stated),-8.6%,>57
CN=C1SC(CC(=O)Nc2sc3c(c2C#N)CCCC3)C(=O)N1C (configuration not stated),-0.3%,>57
Cc1ccc(Cl)cc1N1CCN(S(=O)(=O)c2cccc(S(=O)(=O)N3CCCC3)c2)CC1,?,>57
CCSC1=C(C#N)C(=O)n2c1cc1c2CCCC1,6.0%,>57
COC(=O)c1[nH]c2ccc(F)cc2c1NC(=O)CCN1CCN(C(=O)c2ccco2)CC1,1.8%,>57
CCCCCCN(C(=O)CCCCCN1C(=O)NC(c2ccc([N+](=O)[O-])cc2)C(C(=O)OCc2ccccc2)=C1C)C(C(=O)NCCCC)c1ccc(OCC(=O)OC)c(C(=O)OC)c1 (configuration not stated),28.1%,/
CC(=NC1CCN(Cc2ccccc2)CC1)c1c(O)n(C)c(=O)n(C)c1=O,-5.3%,>57
CC(C)CC(c1nnnn1CC1CCCO1)N1CCN(Cc2ccc3c(c2)OCO3)CC1 (configuration not stated),8.0%,>57
C=CCn1c(N)cc(=O)nc1SCC(=O)N1CCN(c2ccc(F)cc2)CC1,?,>57
CCCn1c(N)c(C(c2ccc(C(=O)OC)cc2)N2CCN(c3ccccc3)CC2)c(=O)[nH]c1=O (configuration not stated),?,>57
Clc1ccc(Oc2nc(N3CCOCC3)nc(N3CCOCC3)n2)c(C2CCCCC2)c1,3.9%,>57
CC(OC1=CC(=O)CCC1)C(=O)c1ccccc1 (configuration not stated),11.7%,/
CN(C)c1oc(-c2ccc(OCc3ccccc3)cc2)nc1C#N,-20.9%,>57
O=C(NC1CCCCC1)N(CCN1CCOCC1)Cc1cc2cc3c(cc2[nH]c1=O)OCCO3,?,>57
COC(=O)C/C=C\[C@@H](C)[C@@H](/C=N\O[C@@H](C)c1cc(-c2c(C)cc(C)cc2C)no1)NS(=O)(=O)c1ccc(C)cc1,?,/

# Later entries
SMILES,Anthrax LT inh,Prx2 Sm inh
CCN(CC)CCO,-0.6%,/
N#CC12CCCCC1CC1CCCCC1(C#N)N2CCO (configuration not stated),-5.3%,>57
CC(C)Nc1nc(C#N)nc(NC(C)C)n1,-16.9%,>57
COc1ccccc1NC(=O)Cn1cnc2c(cnn2-c2ccccc2)c1=O,-0.1%,>57
CN(C)c1ncc2nc(-c3ccc(F)cc3)c(=O)n(Cc3ccc(F)cc3)c2n1,?,>57
COc1ccc(N2CCN(C(=O)CSc3nnc(C)c(=O)[nH]3)CC2)cc1,-0.6%,>57
Cc1ccc(-c2csc(NC(=O)CSc3ncn(-c4ccccc4)n3)n2)cc1,?,>57
CCOC(=O)CCCN,-8.5%[8 µM],>57
CCOC(=O)c1c(CN2CCN(C)CC2)oc2ccc(O)cc12,-12.5%,>57
O=C(CSc1nnc(Cc2csc(Nc3cccc(Cl)c3)n2)o1)N1CCc2ccccc21,-26.2%,>57
O=Cc1ccco1,3.9%,/
COc1ccccc1NC(=O)NCCN1C(=O)C2C3C=CC(C3)C2C1=O (configuration not stated),-1.0%,>57
Cc1c(NC(=O)c2cc3nc(-c4ccccc4)cc(C)n3n2)c(=O)n(-c2ccccc2)n1C,7.1%,>57
CCCCCOc1ccc(OC(=O)c2ccncc2)cc1,2.8%,>57
COC(=O)[C@@]1(Cc2ccc(OC)cc2)[C@H]2c3cc(C(=O)N4CCCC4)n(Cc4ccc(C)c(F)c4F)c3C[C@H]2CN1C(=O)c1ccccc1,-9.2%,>57
COc1ccccc1NC(=O)C1CC(=O)N(c2ccc(F)cc2)C1 (configuration not stated),8.1%,>57
COC(=O)c1sc2nc3c(cc2c1N)COC(C)(C)C3,15.3%,/
O=S(=O)(NCCc1ccncc1)c1ccc(S(=O)(=O)N2CCCCCC2)cc1,11.9%,>57
CCN(CC)CCn1c(-c2ccccc2)nc2c(NC3CCCCC3)nc(C)nc21,-11.9%,/
COc1cc(S(=O)(=O)N2CCCCCC2)c(OC)cc1Br,-6.2%,/
O=C(NCc1n[nH]c(=S)n1-c1ccc(F)cc1)c1ccco1,2.9%,>57
O=C(CN1C(=O)CC(c2ccco2)Sc2ccccc21)Nc1ccccc1F (configuration not stated),?,>57
COc1cccc(C(=O)N(Cc2nc(-c3ccc(C)cc3)no2)C(C)C)c1,-18.9%,>57
Cn1nc(OCc2ccccc2)ccc1=O,3.6%,>57

# In the list so far, these have bromine:
SMILES,Anthrax LT inh,Prx2 Sm inh
CCC1CCCCN1C(=O)c1cc2cc(Br)ccc2oc1=O (configuration not stated),-5.4%,>57
COc1cc(S(=O)(=O)N2CCCCCC2)c(OC)cc1Br,-6.2%,/

# 2 entries picked at random from those above:
SMILES,Anthrax LT inh,Prx2 Sm inh
COC(=O)c1sc2nc3c(cc2c1N)COC(C)(C)C3,15.3%,/
COC(=O)[C@@]1(Cc2ccc(OC)cc2)[C@H]2c3cc(C(=O)N4CCCC4)n(Cc4ccc(C)c(F)c4F)c3C[C@H]2CN1C(=O)c1ccccc1,-9.2%,>57

# (cont.)
SMILES,Anthrax LT inh,Prx2 Sm inh
CCOC(=O)N1CCN(S(=O)(=O)c2cc(Br)cnc2N)CC1,4.7%,>57
COc1ccc2[nH]c3cc4c(=O)c5cc(OC)ccc5[nH]c4cc3c(=O)c2c1,-1.3%[8 µM],>57
CCc1ccc(-c2nc(CN3CCC(C(=O)NCc4ccccc4OC)CC3)c(C)o2)cc1,-3.2%,>57
Cc1cc(C(=O)Nc2ccc(S(=O)(=O)Nc3nccs3)cc2)c(C)o1,3.4%,>57
COc1ccc(C(c2sc3nc(C)nn3c2O)N2CCN(Cc3ccccc3)CC2)cc1OC (configuration not stated),-0.2%,>57
CC(C)CN1CCCC2(CCN(C(=O)c3ccco3)CC2)C1,?,>57
COC(=O)[C@@]1(Cc2ccc(F)cc2)[C@H]2c3cc(C(=O)N(C)C)n(CCF)c3C[C@H]2CN1C(=O)c1ccccc1,?,>57
CC1Cc2cc(/C(O)=C3\C(=O)C(=O)N(CCN(C)C)C3c3ccccc3F)ccc2O1 (configuration not stated),1.0%,>57
N#CCCNc1ccc(OCCC#N)cc1,4.5%,>57
Cc1ccc(-n2c(CSc3nc(C)cc(C)n3)nnc2SCC(=O)N2CCCC2)cc1,2.9%,>57
Cc1ccc(-n2nnnc2SCC(=O)N2CCc3ccccc3C2)cc1,-0.3%,/
CCOC(=O)N1CCN(C(=O)C2CCC(=O)N2C(C)C)CC1 (configuration not stated),-3.3%,>57
Oc1ccc(O)c2c(O)cccc12,-2.4%,/
COc1ccc(S(=O)(=O)N2CCC(C(=O)NCC(c3cccs3)N(C)C)CC2)cc1 (configuration not stated),1.1%,>57

# Screens (PubChem)
